Screening results as filed in PubChem BioAssay.
miR-21 reporter: raises the signal of a miR-21 reporter | AID 2288 | HeLa miR-21 FLuc reporter, luciferase, 48 h | Potency, µM (doses to about 38.3 µM), for inactives: top-dose reporter change, positive = more light | 340,000 tested, under 10 active; active = well fitted rising curve with a large enough effect; inconclusive = small, poorly fitted or top-dose-only effect; inactive = no such curve, though single readings can be large or run the other way;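 note: % of control where 0% means no effect; miR-21 action dims this reporter so a rising signal means less miR-21 action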
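HeLa miR-21-FLuc reporter line, endogenous miR-21; 2000 cells/well in DMEM/10% FBS; compound titration up to ~40uM final, 48 h, 37 degree Celsius; luciferase detection reagent, 15 min lysis, CCD luminescence.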
Rango release inh: inhibitors of RanGTP-induced Rango-importin beta complex dissociation; 0.071% of 340,000 active; AID 540253; Biochemical FRET Rango-importin beta, RanGTP-induced dissociation; Potency, µM (titrated, usually from 46.1 µM), for inactives: at the highest dose activity change, negative = inhibition; active means falling FRET ratio curve, often poorly fitted, with flat reads before Ran was added; inconclusive means other falling curves, or compound fluorescence or quenching; inactive means flat or rising ratio curve;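 note: potency is the fitted concentration of half-maximal effect; % of control where 0% means no effect; nearly all actives have a fitted effect of over 45% in size; -100% = wells without RanGTP and RCC1; the record marks most hits as doubtful in a second field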
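Rango/importin beta premix (0.1/0.25 uM final), PBS + 1 mM DTT + 0.02% Tween-20 + 0.1% BSA; cpd 5 min RT; FRET pre-read; + RanGTP-RCC1 (0.6 uM Ran, 2 mM GTP, 0.2 uM RCC1); 45 min RT; FRET post-read, ex 430, em 486/530 nm.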
GLA inh pH 4.5: blocks human alpha-galactosidase A at pH 4.5; purified enzyme, 4-MU-alpha-Gal fluorescence, pH 4.5; activity change, negative = inhibition, % at 105 µM; 230,000 tested, under 10 active; AID 1467; inconclusive = small, poorly fitted or top-dose-only inhibition, or a rising curve; inactive = flat fitted curve, though single readings scatter; no compound was filed as active;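 note: 0% = full activity with enzyme and -100% = basal without enzyme; dose as in the result columns while the protocol names 77 µM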
Target sequence (P06280 whole entry, looked up): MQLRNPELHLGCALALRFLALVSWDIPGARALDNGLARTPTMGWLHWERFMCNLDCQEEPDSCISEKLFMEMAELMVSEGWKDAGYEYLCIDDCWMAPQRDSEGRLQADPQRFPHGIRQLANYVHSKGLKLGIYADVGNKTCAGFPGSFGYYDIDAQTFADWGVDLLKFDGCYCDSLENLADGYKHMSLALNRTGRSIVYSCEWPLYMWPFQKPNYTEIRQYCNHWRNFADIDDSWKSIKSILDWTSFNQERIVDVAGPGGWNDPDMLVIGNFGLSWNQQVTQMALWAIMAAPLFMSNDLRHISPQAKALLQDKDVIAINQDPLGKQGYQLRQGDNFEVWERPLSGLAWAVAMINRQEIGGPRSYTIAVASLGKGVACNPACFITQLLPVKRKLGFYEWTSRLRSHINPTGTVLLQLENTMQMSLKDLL
Rango-impB inh: prevents formation of the Rango-importin beta complex; Rango CFP/YFP FRET sensor + importin beta, 45 min; 0.031% of 340,000 active; AID 540263; Q14974; Potency, µM (highest dose often 92.2 µM), without a hit: at the top dose inhibition of complex formation; active = rising FRET ratio curve, often small or poorly fitted; inconclusive = mostly compound fluorescence or quenching in the first reads; inactive = flat curves in all reads;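 note: potency is the fitted concentration of half-maximal effect; 0% = DMSO wells and 100% = buffer wells lacking importin beta; nearly all actives have a fitted effect of over 15% in size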
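FRET biosensor (snurportin 1 IBB flanked by EYFP and cerulean), 50 nM, with compound 5 min, then 0.125 microM importin beta in PBS, 1 mM DTT, 0.02% Tween-20, 0.1% BSA. CFP/YFP ratio read after 45 min at room temperature; pre-read flags interference.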
An asterisk follows results filed as active; u = inconclusive; x = no result given; & = joins results of further samples; [ ] = another dose, or the depositor's remark. An excerpt, so the mix of outcomes need not match the whole.

miR-21 reporter	Rango release inh	GLA inh pH 4.5	molecule	Rango-impB inh
-6%	-11%	10	Cc1nccn1CC(=O)O	5.7%
-6%	-14%	-1	COc1ccc(C(=O)CSc2nnc(Cc3ccccc3)o2)cc1	0.9%
1%	1%	0	CC(OC(=O)C1COc2ccccc2O1)C(=O)N(C)c1ccccc1 (centres undefined)	0.6%
-1%	-5%	x	Cc1cc(OCC(=O)Nc2cc(C(C)(C)C)on2)ccc1[N+](=O)[O-]	0.0%
-10%	-11%	7	NS(=O)(=O)c1ccc(NC(=O)CSc2nc3ccccc3n2-c2ccccc2)cc1	3.0%
x	15%	x	CC(OC(=O)CNC(=O)COc1ccccc1)C(=O)N(C)Cc1ccccc1 (centres undefined)	-0.3%
x	-4%	x	Cn1c(Cc2nc3ccccc3n2C)nc2ccccc21	0.3%
-6%	-2%	x	COc1ccc(C(=O)Nc2ccc(Cl)cc2C(=O)N2CCOCC2)cc1	-0.2%
-5%	13%	-2	O=C1CC(N2CCCCCC2)C(=O)N1c1ccc2c(c1)OCO2 (centres undefined)	-0.3%
8%	-4%	x	CCc1cc2c3c([nH]c2cc1S(=O)(=O)N1CCC2(CC1)OCCO2)CCCC3=O	4.2%
-23%	5%	-10	O=C(CSCc1ccccc1Br)NC1CC1	-2.5%
1%	-6%	-4	Cc1ccc(N2C(=O)[C@@H]3C(C(=O)CN4C(=O)c5ccccc5C4=O)=NN[C@@H]3C2=O)c(C)c1	-1.8%
-7%	-8%	-2	CC(C)c1nc(Cl)c(C#N)c2c1CSC(C)(C)C2	3.2%
-11%	-1%	-2	CC(NCc1ccc2c(c1)OCO2)C(=O)N1CCc2ccccc21 (centres undefined)	-0.5%
6%	14%	-8	O=C(Nc1ccc(N2CCCC2)c(S(=O)(=O)Nc2cccc(C(F)(F)F)c2)c1)c1cccs1	-4.3%
10%	20%	-5	CCCCCCCCCC[n+]1cccc(C(=O)N(CC)CC)c1	u
-1%	2%	-21	CCOc1cc(C(=O)N2CCCC2)cc(OCC)c1OCC	1.7%
-29%	-4%	5	N/C(Cc1ccc(Cl)cc1Cl)=N\OC(=O)Cc1cccs1	-0.4%
x	3%	x	O=C(NCCCO)C(=O)Nc1ccc2c(c1)N(S(=O)(=O)c1cccs1)CCC2	4.0%
0%	0%	0	Cc1ccc(C)c(NC(=O)c2ccc[n+](Cc3ccc([N+](=O)[O-])cc3)c2)c1	4.6%
-42%	-15%	-1	Brc1ccccc1-n1nnc(-c2cccnc2)n1	-1.9%
x	7%	x	COc1cccc(CN(C)S(=O)(=O)c2ccc3c(c2)OCCO3)c1	-1.9%
-2%	-15%	x	CC(C)[C@@H](C(=O)NCC1CCCO1)N1C(=O)N2CCc3c([nH]c4ccccc34)[C@@]2(C)C1=O (some centres undefined)	1.1%
2%	1%	x	CCN(CC(=O)N1CCN(Cc2ccccc2)CC1)S(=O)(=O)c1ccc(C)cc1	-1.4%
-4%	-26%	4	CC(C)(C)NC(=O)CN(C(=O)CCN1CCCc2ccccc21)C(C)(C)C	u

Next structures:
miR-21 reporter	Rango release inh	GLA inh pH 4.5	molecule	Rango-impB inh
-3%	-5%	x	CCc1noc(C)c1C(=O)Nc1ccccc1C(C)(C)C	1.8%
0%	-2%	x	O=C1C(=O)N(CCN2CCOCC2)C(c2ccc(Cl)cc2)/C1=C(/O)c1ccc(S(=O)(=O)N2CCOCC2)cc1 (centres undefined)	0.9%
6%	-17%	x	CCOC(=O)CNC(=O)N1CCCC(C(=O)c2cc(C)c(OC)c(C)c2)C1 (centres undefined)	-2.5%
2%	6%	x	CC(=O)Nc1cccc(/C(C)=N/N2C(C)CCCC2C)c1 (centres undefined)	1.1%
-14%	-2%	5	CCc1nc2oc3ccccc3c(=O)c2c(=O)n1Cc1ccccc1	-0.1%
-2%	0%	x	O=C1CCN(Cc2ccccc2)CCN1[C@H](CO)c1ccccc1	u
x	0%	x	COc1cc2c(c(OC)c1OC)-c1ccc(OC)c(=O)cc1C(NC(=O)c1ccccc1)CC2 (centres undefined)	-5.4%
-3%	12%	3	Cc1nnsc1C(=O)NNC(=O)c1ccc(C(F)(F)F)cc1	0.3%
2%	u	x	CCC1C(=O)C(C)(C)C(=O)OC1c1ccc([N+](=O)[O-])cc1 (centres undefined)	-0.2%
-4%	5%	x	CSc1cccc(CN2CCCC(CNC(=O)c3ccco3)C2)c1 (centres undefined)	-3.4%
-9%	-5%	x	Cc1ccc(CNC(=O)C2CCC(=O)N(CCc3cccc(F)c3)C2)s1 (centres undefined)	u
-49%	16%	-3	COc1ccc(C(=O)O/N=C(/c2ccccc2)c2ccncc2)cc1	-0.4%
-19%	-8%	-6	CCc1ccc2oc(-c3cc(N)ccc3Cl)nc2c1	-1.1%
-10%	-11%	-2	CCOCC(=O)Nc1nnc(SCCOC)s1	-0.6%
-1%	-26%	-6	CC1CCCCC1NC(=O)CC1Oc2ccccc2NC1=O (centres undefined)	-3.5%
-8%	-5%	-4	COC(=O)NNC(=S)NCc1ccc(C)cc1	-0.1%
0%	-3%	x	CC(C)N(C(=O)Cn1c(SCC(=O)NC2CC2)nc2ccccc21)C(C)C	-0.6%
-2%	-5%	3	COc1ccc(CN2CCOCCOCCOCC2)cc1	0.0%
x	0%	x	N#CCc1c(C#N)c(N)nc(N2CCOCC2)c1C#N	u
-2%	0%	2	CSc1nnc(-c2cc[n+](C)cc2)n1CCO	0.5%
0%&-1%	-19%	x	COc1ccc(C2=NS(=O)(=O)N(C)C(C(=O)NC(C)c3ccccc3)=C2)cc1OC (centres undefined)	u
-8%	6%	-9	Cc1cccc(C(=O)NCCCN2CCCC2=O)c1	-1.1%
-1%	7%	-10	Cc1ccccc1NC(=O)OCc1cccnc1Sc1ccc(Cl)cc1	-2.1%
1%	-16%	-13	CC(=O)c1c(C(C)=O)c(C)n(C(c2ccccc2)c2ccccc2)c1C	0.5%
-5%	-8%	4	Clc1ccc(SCc2cc(-c3ccccc3)on2)cc1	-1.7%

An excerpt from above in order of their number in GLA inh pH 4.5, largest number first.
SMILES	miR-21 reporter	Rango release inh	GLA inh pH 4.5	Rango-impB inh
CCc1nc2oc3ccccc3c(=O)c2c(=O)n1Cc1ccccc1	-14%	-2%	5	-0.1%
CCOCC(=O)Nc1nnc(SCCOC)s1	-10%	-11%	-2	-0.6%
Cc1ccccc1NC(=O)OCc1cccnc1Sc1ccc(Cl)cc1	-1%	7%	-10	-2.1%

Individual results from the list:
CC(NCc1ccc2c(c1)OCO2)C(=O)N1CCc2ccccc21 (centres undefined) – Rango-impB inh: -0.5%
COc1ccc(C(=O)O/N=C(/c2ccccc2)c2ccncc2)cc1 – Rango-impB inh: -0.4%
Clc1ccc(SCc2cc(-c3ccccc3)on2)cc1 – GLA inh pH 4.5: 4

The list goes on.
miR-21 reporter	Rango release inh	GLA inh pH 4.5	molecule	Rango-impB inh
-20%	5%	7	O=C(O)c1ccc(NCc2ccc(Br)cc2)cc1	-0.4%
u	-1%	5	O=c1cc(C(F)(F)F)[nH]c2ccc(OC(F)(F)F)cc12	-0.2%
-5%	u	x	O=C(O)CSc1c2ccccc2cc2ccccc12	u
-1%	-7%	x	O=C(CCCCCn1c(=S)[nH]c2cc3c(cc2c1=O)OCO3)N1CCN(c2ccccc2)CC1	-0.5%
-12%	5%	6	CCC(C)[C@H](NC(=O)OC(C)(C)C)c1nnc(SCc2c(C)[nH]c(=O)[nH]c2=O)o1 (some centres undefined)	0.7%
-19%	2%	-3	CCOc1ccc(NC2=NCC(=O)N2Cc2cccs2)cc1	-2.3%
2%	-16%	0	CC(NC(=O)C1CCCN1S(=O)(=O)c1ccc2c(c1)n(C)c(=O)c(=O)n2C)c1ccccc1 (centres undefined)	0.7%
0%	-19%	2	Cc1noc(C)c1CSCC(=O)OCc1nc2ccccc2c(=O)n1CC#N	u
-5%	10%	-1	CC(C)N1CCN(Cc2ccccc2-c2ccco2)CC1CCO (centres undefined)	0.2%
-4%	6%	x	COCCC(=O)N1CCC(Oc2ccc(C(=O)N3CCCC(OC)C3)cc2)CC1 (centres undefined)	2.7%
-1%	2%	-5	COC(=O)C(C)Sc1nc2c(c(=O)[nH]c(=O)n2C)n1CCC(C)C (centres undefined)	0.7%
-4%	-8%	2	CC(C)CCOc1ccc(C(=O)N2CCCC2C(=O)O)cc1 (centres undefined)	3.2%
-8%	20%	-19	CCOc1ccc(C(C)NC(=O)C2CCCC2)cc1 (centres undefined)	-1.7%
-2%	0%	0[21.1 µM]	CC(C)C1N(C(=O)CN2CCCCC2)CCN1S(=O)(=O)c1ccccc1 (centres undefined)	1.7%
x	-10%	x	CC(OC(=O)C1CC1)C(=O)Nc1ncc(Cl)cc1Cl (centres undefined)	-3.8%
-3%	u	x	O=C(CCCn1nnnc1CN1CCOCC1)N1CCC(c2ccccc2Cl)C1 (centres undefined)	u
-31%	-2%	x	CC(=O)c1ccc(NC(=S)N2CCCC2)cc1	3.3%
-2%	1%	x	O=C(c1cccc(Cl)c1)N1CCN(c2ncccn2)CC1	3.3%
1%	6%	-3&3	COc1c2c(nc3occc13)C(CC=C(C)C)(OC)C(=O)C=C2 (centres undefined)	4.4%
-1%	1%	-5	CC(C)n1c(C(O)c2ccc3c(c2)OCO3)nc2ccccc21 (centres undefined)	5.7%
x	-12%	x	O=C(COC(=O)c1ccc(Cl)nc1)Nc1cc(S(=O)(=O)N2CCOCC2)ccc1Cl	-0.2%
x	-3%	x	COc1ccc(COn2nnc3ccc(S(=O)(=O)N4CCOCC4)cc32)cc1F	9.2%
0%	u	x	CC1CCN(Cc2nnnn2CCCC(=O)NCCN2CCOCC2)CC1	1.8%
x	6%	x	CCOc1ccc(CCNC(=O)COC(=O)c2cccnc2SC)cc1OCC	3.4%
-2%	-8%	2	Brc1ccc(OCCCCCN2CCOCC2)cc1	1.7%

Single records, as listed above.
CC(C)N(C(=O)Cn1c(SCC(=O)NC2CC2)nc2ccccc21)C(C)C as listed: miR-21 reporter: 0%; Rango release inh: -3%; GLA inh pH 4.5: x; Rango-impB inh: -0.6%
CC(C)CCOc1ccc(C(=O)N2CCCC2C(=O)O)cc1 (centres undefined) as listed: miR-21 reporter: -4%; Rango release inh: -8%; GLA inh pH 4.5: 2; Rango-impB inh: 3.2%

(list continues)
miR-21 reporter	Rango release inh	GLA inh pH 4.5	molecule	Rango-impB inh
-6%	0%	10	Cn1c(=O)c2c(nc(N3CCOCC3)n2C/C=C/c2ccccc2)n(C)c1=O	0.2%
0%	1%	2	CC(c1ccccc1)C1NC(C(=O)O)CS1 (centres undefined)	-3.3%
-10%	4%	4	COC(=O)c1ccccc1NC(=O)CSc1[nH]c(=O)cc(C)c1C#N	2.2%
21%	u	-5	CCN=c1scc(-c2ccccc2)n1/N=C/c1ccccn1	u
x	-4%	x	CN(Cc1c(F)cccc1Cl)C(=O)CNC(=O)c1ccc2c(c1)OCO2	-1.6%
-1%	13%	-8	COCCN(C(=S)Nc1ccccc1C)C(C)c1ccco1 (centres undefined)	3.9%
-9%	-7%	11	O=C(Nc1ccc(Br)cn1)c1coc(=O)c(Br)c1	u
-8%	x	-11	CCOC(=O)c1c(C)[nH]c(C(=O)OCC(=O)c2c(N)n(C)c(=O)n(C)c2=O)c1C	x
4%	-4%	9	COc1cc(CCC(=O)OCC(=O)NC2CCCC(C)C2C)cc(OC)c1OC (centres undefined)	-3.5%
-1%	-18%	-4	COc1ccc(C2CC(=O)C(CS(=O)(=O)c3ccccc3)C(=O)C2)cc1 (centres undefined)	3.8%
-1%	1%	-10	CCN1CCN(CC(=O)N2N=C(c3ccc(OC)cc3)CC2c2ccc(OC)cc2)C(=O)C1=O (centres undefined)	0.1%
-9%	-14%	3	CCOC(=O)C(C)Oc1cccc2c(=O)n(CC(=O)NCCc3ccc(OC)c(OC)c3)ccc12 (centres undefined)	0.0%
-3%	-4%	10	c1ccc(CN2CCN(CCOCCOc3ccc4c(c3)CCC4)CC2)cc1	-0.5%
-11%	-3%	5	O=C(Nc1ccccc1N1CCOCC1)C1CCN(S(=O)(=O)c2ccccc2F)CC1	-0.7%
-2%	u	0	COc1cccc2c(=O)c3cccc(N)c3[nH]c12	u
